Source: PubChem BioAssay
Mtb betalactam = beta-lactam sensitization of Mtb H37Rv, H37Rv. inhibition, % at 25 µM. 0.27% of 330,000 active. AID 434955, 2010. M. tuberculosis H37Rv growth with meropenem, percent inhibition; hits of this screen are not shown here;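 active = about 74% or more and at least 40 points above the plate without the antibiotic, then above 30% in a dose series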;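 also: growth measured after seven days incubation then overnight dye step; 0% = bacteria only wells and 100% = bacteria with antibiotic; twin plates without the antibiotic show which effects depend on it; some results filed as inactive read as strong as hits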
Arbovirus inh = antivirals against arbovirus infection, primary screen, cell-based, full library, 10K replicate subset; arbovirus infection cell-based antiviral screen; inhibition, % at 10 µM; 0.37% of 200,000 active;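 active = inhibition from about 30%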;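 also: bluetongue infection of BSR cells; cell survival read as ATP light after 72 h; 0% = infected wells without compound and 100% = uninfected wells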
RecA intein inh = Mtb RecA intein splicing inhibitors, primary screen, biochemical, fluorescence, HTS | Protein RecA (Mycobacterium tuberculosis (strain ATCC 25618 / H37Rv)), P9WHJ3 | cell-free RecA intein splicing | inhibition, %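 (about 9 µM by stock and volumes)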 | 0.75% of 290,000 active | AID 2221, 2009; in the data active = inhibition above about 30%;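 also: 0% = vehicle wells and 100% = reference inhibitor control wells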
Target sequence (P9WHJ3 whole entry, looked up): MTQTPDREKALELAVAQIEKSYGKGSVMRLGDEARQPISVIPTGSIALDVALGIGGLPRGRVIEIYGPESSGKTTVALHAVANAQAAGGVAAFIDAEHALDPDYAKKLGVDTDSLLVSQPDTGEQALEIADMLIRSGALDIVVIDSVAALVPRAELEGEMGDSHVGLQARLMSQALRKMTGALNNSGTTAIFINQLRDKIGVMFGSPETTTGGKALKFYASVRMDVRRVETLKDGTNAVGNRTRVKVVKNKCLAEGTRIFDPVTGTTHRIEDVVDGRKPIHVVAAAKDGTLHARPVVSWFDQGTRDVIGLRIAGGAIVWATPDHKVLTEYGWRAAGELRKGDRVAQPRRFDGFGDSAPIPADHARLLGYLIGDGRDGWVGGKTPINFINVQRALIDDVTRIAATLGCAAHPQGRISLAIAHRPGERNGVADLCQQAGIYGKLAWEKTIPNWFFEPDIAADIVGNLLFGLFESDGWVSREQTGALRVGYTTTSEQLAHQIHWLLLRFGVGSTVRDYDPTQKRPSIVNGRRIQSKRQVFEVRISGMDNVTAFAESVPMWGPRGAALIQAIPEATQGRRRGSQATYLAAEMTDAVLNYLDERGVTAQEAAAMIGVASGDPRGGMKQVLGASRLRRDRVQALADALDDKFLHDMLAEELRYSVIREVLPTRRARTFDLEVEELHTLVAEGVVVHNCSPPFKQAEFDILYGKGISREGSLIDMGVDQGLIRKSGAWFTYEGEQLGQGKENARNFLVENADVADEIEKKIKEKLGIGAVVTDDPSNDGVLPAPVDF
Mtb growth = M. tuberculosis H37Rv growth inhibitors, H37Rv strain (AID 1626). one-dose inhibition, % at 10 µM; IC50 in µM for titrated hits. 0.95% of 220,000 active. M. tuberculosis H37Rv growth inhibition; higher % means a stronger effect;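 active = confirmed in a dose series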;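 also: bacteria incubated seven days before Alamar blue readout; 0% = bacteria only wells and 100% = bacteria with antibiotic wells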
YopH inh = YopH tyrosine phosphatase inhibitors, primary screen, biochemical, fluorescence Ex485/Em525; YopH tyrosine phosphatase [Yersinia enterocolitica]; inhibition, %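 (about 10 µM by stock and volumes)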; 0.16% of 140,000 active;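 active = inhibition of 50% or more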;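 also: controls were vehicle for no effect and minimum signal wells for full effect; inactives centre near -20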
Arbovirus inh repeat = also measured in Arbovirus inh; calls as there; inhibition, %; measured here: 10K subset replicate screen; many hits read low in the repeat;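 first of two repeat runs on a subset; 0% = infected and 100% = uninfected wells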
* = called active by the depositor; x = not tested or not shown. An excerpt; count on the stated rates, not on these rows.

SMILES	Mtb betalactam	Arbovirus inh	RecA intein inh	Mtb growth	YopH inh	others
CCOC(=O)/C=C1\CC(=O)Nc2cc(C)c(C)cc2N1	-8	-2	-1.2	-6%	34
CN(CC(=O)NC1CCN(Cc2ccccc2)CC1)S(=O)(=O)c1ccc2c(c1)c(=O)n(C)c(=O)n2C	-1	-2	2.3	7%	x
O=C1C2CCN(CC2)C1Cc1ccc(OCc2ccccc2)cc1 (stereo not drawn)	-6	0	0.2	5%	x
CC(=O)Nc1ccc(NC(=O)COC(=O)c2ccccc2SCC(=O)N2CCCC2)cc1	-9	x	-1.3	x	x
O=C1c2cccc3cccc(c23)C(=O)N1c1ccccc1Cl	-4	x	-1.3	x	x
CC(C)COc1nc2ccccc2c(=O)n1OCC(=O)O	-8	0	-3.5	x	-24
Cn1c(=O)c(C(=O)NNC(=O)c2ccc(Br)cc2)c(O)c2ccccc21	100	x	2.2	x	x
O=Cc1cnc(N2CCN(Cc3ccccc3)CC2)s1	4	-17	0.9	-3%	x
O=C(COC(=O)c1cccc(C(F)(F)F)c1)NCc1ccc(Cl)cc1	6	6	-1.2	3%	-38
O=S(=O)(c1ccc(NC(=S)NN=C(Cc2ccccc2)Cc2ccccc2)cc1)N1CCOCC1	0	-16	4.7	-3%	x
O=[N+]([O-])c1ccc(N=Nc2ccc(O)cc2O)cc1	31	-36	5.9	6%	-3
CC(=O)N/N=C/c1ccccc1OCCOc1cccc(C)c1	25	x	1.8	x	x
CCC(=O)NNc1ncnc2c1cnn2C	7	7	-1.6	-7%	x
O=C(O)COc1ccc(F)cc1Br	-6	x	-0.3	-8%	x
Cc1ccc(N2CC(C(=O)NC(C)CCc3ccccc3)CC2=O)cc1 (stereo not drawn)	2	x	-2.2	x	x
CCOC(=O)C1CCN(C(=O)COc2ccc(Br)cc2C)CC1	-5	-1	-3.5	4%	x
CCC(C)[C@H](NC(=O)NCc1cccs1)C(=O)OC (stereo partly drawn)	3	-1	1.8	-3%	-36
Cc1cccc2nc(CSc3nncn3-c3ccccc3)cn12	-3	1	-1.1	-4%	-23
COc1ccc(NC(=O)C2CCN(c3nc(C)nc4c3CCC4)CC2)cc1	-5	-1	0.3	-5%	x
COc1ccc(Br)cc1C(=O)NC(=S)Nc1ccc2[nH]c(=O)[nH]c2c1	10	x	-3.2	x	x
C/C(=N/Nc1ncc(C(F)(F)F)cc1Cl)c1ccncc1	8	-1	-4.4	-1%	x
C=CCN(c1ccccc1)S(=O)(=O)c1cccc(C(=O)Nc2cccc(C)n2)c1	-2	x	3.2	x	x
CS(=O)(=O)N(CC(=O)NCc1ccco1)c1cc(C(F)(F)F)ccc1Cl	10	0	2.0	2%	-15	Arbovirus inh repeat=1
O=C(CN(Cc1ccccc1)S(=O)(=O)c1ccccc1)N1CCOCC1	7	5	0.6	-7%	7
COC(=O)c1sccc1NC(=O)CCC1CCCC1	-6	4	0.8	0%	-55
Cc1cc(N2C(=O)C3CC=CCC3C2=O)cc(C)c1Br (stereo not drawn)	-7	0	-4.0	-6%	-7	Arbovirus inh repeat=1
Cc1c(OC(C)C(=O)NCC2CCC(C(=O)O)CC2)ccc2c(-c3ccccc3)cc(=O)oc12 (stereo not drawn)	-10	x	-1.9	x	x
Cc1ccc(C2(c3ccc(C)cc3)NC(=O)N(Cc3c(C)noc3C)C2=O)cc1	10	-23	5.6	11%	-7
CCn1cc(C(=O)NCc2cccnc2)c(=O)c2cc(F)c(N3CCN(C(=O)c4ccco4)CC3)cc21	94	11	2.5	14%	-5
COc1cc(/C=C2\N=C(c3ccccc3)NNC2=O)cc(OC)c1OC	4	x	5.8	6%	x
Cc1cccn2c(=O)c(/C=N/O)c(NCc3ccccc3)nc12	0	x	-1.3	10%	x
COC(=O)CC1COc2ccccc2N1S(=O)(=O)c1ccc(OC)cc1 (stereo not drawn)	-1	x	2.0	x	x
COc1ccc(S(=O)(=O)N(C(=O)c2ccncc2)c2ccc(OC(=O)c3ccncc3)cc2)cc1	-10	1	17	5%	x
NC(=O)Cn1c(=O)n(CCC(=O)NCCSCc2ccccc2)c(=O)c2ccccc21	1	7	-1.4	-8%	x
Cc1cc(C)cc(C(=O)NC2CC(C)(C)NC(C)(C)C2)c1	-3	x	1.0	x	x
COc1cc(/C(C)=N\NC(=O)CSc2nc3ccccc3n2C)ccc1O	0	x	-1.0	7%	x
NC(=O)Cn1cc(C(=O)c2cccs2)c2ccccc21	5	-1	-3.0	-2%	4
O=C(CCN1C(=O)c2ccccc2C1=O)C1=NN[C@@H]2C(=O)N(c3ccc(F)cc3)C(=O)[C@H]12	-8	0	1.9	3%	-11
Cc1csc(NC(=O)NCC2CCCC(CNC(=O)Nc3nc(C)cs3)C2)n1 (stereo not drawn)	91	x	-3.3	x	x
COc1ccc(CCNS(=O)(=O)c2cccc(F)c2)cc1OC	-6	3	-3.0	0%	8
Cn1c(=O)c(-c2cc(=O)[nH][nH]2)c(O)c2ccccc21	2	-5	-6.6	2%	x
COc1ccc(C(=O)NC2CCCc3c2cnn3-c2ccc(C)c(C)c2)c(OC)c1OC (stereo not drawn)	11	x	7.1	x	x
S=c1[nH]nc(-c2cc(-c3ccccc3)n[nH]2)n1/N=C/c1c2ccccc2cc2ccccc12	6	x	x	15%	x
Cn1c(=O)c2c(ncn2CC(=O)Nc2nc3ccc(F)cc3s2)n(C)c1=O	65	0	2.6	-8%	9
NNC(=O)c1nc[nH]c1C(=O)Nc1ccccn1	3	-1	x	5%	x

Taken from above for reference:
SMILES	Mtb betalactam	Arbovirus inh	RecA intein inh	Mtb growth	YopH inh	others
Cc1cccn2c(=O)c(/C=N/O)c(NCc3ccccc3)nc12	0	x	-1.3	10%	x
COC(=O)CC1COc2ccccc2N1S(=O)(=O)c1ccc(OC)cc1 (stereo not drawn)	-1	x	2.0	x	x

Next part
SMILES	Mtb betalactam	Arbovirus inh	RecA intein inh	Mtb growth	YopH inh	others
Cc1ccc(NC(=O)C2=CC(c3ccc(C)cc3)=NS(=O)(=O)N2C)cc1	-2	x	-1.2	x	x
CCc1cccc(OCCCCNCCOC)c1	6	2	-0.9	-11%	-54	Arbovirus inh repeat=3
COC(=O)Oc1nsnc1N1CCOCC1	-5	9	0.6	-8%	5
O=S(=O)(c1cccc2ccccc12)N1CCSC1	45	10	x	7%	x
O=C(Nc1ccc(C2CC2(Cl)Cl)cc1)c1cccc([N+](=O)[O-])c1 (stereo not drawn)	5	x	3.1	x	x
Cc1ccc(C)c(NC(=O)CSc2nnc([C@@H](N)Cc3ccccc3)o2)c1	2	-1	2.2	0%	-31
CC(=O)c1cccc(S(=O)(=O)Nc2cccc(S(=O)(=O)NC3=NCCC3)c2)c1	2	1	-0.1	-3%	-33
O=C(CN1C(=O)COc2ccccc21)N(Cc1ccc2c(c1)OCO2)CC1CCCO1 (stereo not drawn)	-7	-8	0.1	9%	-50
CC1(C)Cc2nc3sc4c(SCC(=O)NC(c5ccccc5)c5ccccc5)ncnc4c3cc2CO1	49	-17	-1.8	10%	-37
FC(F)(F)c1cc(-c2ccccc2)nc2nc(N3CCOCC3)sc12	1	-3	1.7	6%	x
Cc1ccccc1C(=O)N1CCC(C(=O)NC(C)c2ccc(-n3ccnc3)cc2)CC1 (stereo not drawn)	-15	x	-2.5	x	x
COc1ccc(C(NC=O)c2cc(OC)c(OC)cc2Br)cc1OC (stereo not drawn)	0	2	-2.1	-5%	-39
COc1cccc(NC(=O)c2ccc(-c3ccccc3[N+](=O)[O-])o2)c1	97	-3	3.5	81%	x
C=CCn1c(SCc2ccccc2)nc(O)cc1=O	-5	6	-2.3	-12%	-46
O=C1CC(C(=O)O)S/C(=N\NC(=O)c2ccccc2)N1 (stereo not drawn)	-3	10	-1.4	2%	-6

Ordered by length of the SMILES (low to high): some entries from above
SMILES	Mtb betalactam	Arbovirus inh	RecA intein inh	Mtb growth	YopH inh	others
CCc1cccc(OCCCCNCCOC)c1	6	2	-0.9	-11%	-54	Arbovirus inh repeat=3
COC(=O)Oc1nsnc1N1CCOCC1	-5	9	0.6	-8%	5
C=CCn1c(SCc2ccccc2)nc(O)cc1=O	-5	6	-2.3	-12%	-46
O=S(=O)(c1cccc2ccccc12)N1CCSC1	45	10	x	7%	x
NNC(=O)c1nc[nH]c1C(=O)Nc1ccccn1	3	-1	x	5%	x
NC(=O)Cn1cc(C(=O)c2cccs2)c2ccccc21	5	-1	-3.0	-2%	4
COc1ccc(CCNS(=O)(=O)c2cccc(F)c2)cc1OC	-6	3	-3.0	0%	8
O=C1CC(C(=O)O)S/C(=N\NC(=O)c2ccccc2)N1 (stereo not drawn)	-3	10	-1.4	2%	-6
COc1ccc(C(NC=O)c2cc(OC)c(OC)cc2Br)cc1OC (stereo not drawn)	0	2	-2.1	-5%	-39
Cc1cc(C)cc(C(=O)NC2CC(C)(C)NC(C)(C)C2)c1	-3	x	1.0	x	x
FC(F)(F)c1cc(-c2ccccc2)nc2nc(N3CCOCC3)sc12	1	-3	1.7	6%	x
COc1cc(/C(C)=N\NC(=O)CSc2nc3ccccc3n2C)ccc1O	0	x	-1.0	7%	x
Cc1csc(NC(=O)NCC2CCCC(CNC(=O)Nc3nc(C)cs3)C2)n1 (stereo not drawn)	91	x	-3.3	x	x
Cn1c(=O)c2c(ncn2CC(=O)Nc2nc3ccc(F)cc3s2)n(C)c1=O	65	0	2.6	-8%	9
Cc1ccc(C)c(NC(=O)CSc2nnc([C@@H](N)Cc3ccccc3)o2)c1	2	-1	2.2	0%	-31
NC(=O)Cn1c(=O)n(CCC(=O)NCCSCc2ccccc2)c(=O)c2ccccc21	1	7	-1.4	-8%	x
Cc1ccccc1C(=O)N1CCC(C(=O)NC(C)c2ccc(-n3ccnc3)cc2)CC1 (stereo not drawn)	-15	x	-2.5	x	x
CC(=O)c1cccc(S(=O)(=O)Nc2cccc(S(=O)(=O)NC3=NCCC3)c2)c1	2	1	-0.1	-3%	-33
CC1(C)Cc2nc3sc4c(SCC(=O)NC(c5ccccc5)c5ccccc5)ncnc4c3cc2CO1	49	-17	-1.8	10%	-37
COc1ccc(S(=O)(=O)N(C(=O)c2ccncc2)c2ccc(OC(=O)c3ccncc3)cc2)cc1	-10	1	17	5%	x
O=C(CCN1C(=O)c2ccccc2C1=O)C1=NN[C@@H]2C(=O)N(c3ccc(F)cc3)C(=O)[C@H]12	-8	0	1.9	3%	-11

Part of the list above in order of heavy-atom count, falling.
SMILES	Mtb betalactam	Arbovirus inh	RecA intein inh	Mtb growth	YopH inh	others
O=C(CN1C(=O)COc2ccccc21)N(Cc1ccc2c(c1)OCO2)CC1CCCO1 (stereo not drawn)	-7	-8	0.1	9%	-50
Cc1ccc(NC(=O)C2=CC(c3ccc(C)cc3)=NS(=O)(=O)N2C)cc1	-2	x	-1.2	x	x
CCc1cccc(OCCCCNCCOC)c1	6	2	-0.9	-11%	-54	Arbovirus inh repeat=3

New compounds follow:
SMILES	Mtb betalactam	Arbovirus inh	RecA intein inh	Mtb growth	YopH inh	others
CCN(CC)S(=O)(=O)c1ccc(N2CCOCC2)c(NC(=O)c2cccc3c(=O)c(C)c(-c4ccccc4)oc23)c1	-1	x	2.4	x	x
COc1ccc(/C=N/NC(=O)Cn2cnc3ccccc3c2=O)cc1OC	-10	4	2.6	4%	-25
CN1CCN(C(=O)COc2ccc(Oc3ccccc3)cc2)CC1	5	-13	0.8	-2%	x
COc1cc(C=O)ccc1OCCOCCOc1c(C)cc(Cl)cc1Cl	2	4	5.6	1%	-13
O=S(=O)(c1cccs1)N1CCC(CO)(Cc2cccc(F)c2)CC1	10	6	-1.1	-4%	x
COc1ccc(N2CCN(C(=O)C(Cc3ccccc3)n3cccc3)CC2)cc1 (stereo not drawn)	-8	10	1.3	7%	-20	Arbovirus inh repeat=-10
Cc1ccc(C)c(NC(=S)N2CCN(Cc3ccccc3)CC2)c1	7	-2	-0.2	-5%	x
COc1ccc(-c2ncc3ccccn23)cc1OC	1	4	-3.2	-2%	-9
CCOc1cccc2cc(C(=O)N3CC(C)OC(C)C3)c(=O)oc12 (stereo not drawn)	-1	x	0.3	x	x
COc1ccc(-c2nnc(SCC(=O)N3CCC(Cc4ccccc4)CC3)o2)cc1OC	4	-4	3.0	67%	-9
CC(=O)Nc1ccc(/C=N/NC(=O)c2cccs2)cc1	9	9	2.3	-4%	x
CCC(=O)Nc1ccc(/C(C)=N\NC(=O)c2ccc(C)s2)cc1	-4	-14	0.7	5%	-32
CC(C)CN1C(=O)c2ccc(C(=O)Nc3nccs3)cc2C1=O	3	2	0.7	x	-13
CN(C)CCCOC(=O)COc1ccc(Br)cc1	-13	x	-0.6	-3%	x
COCCCNCC(=O)Nc1ccc(OC(F)(F)F)cc1	-3	0	-0.3	x	2
